Source: PubChem
RVFV N-RNA FP – inhibitors of Rift Valley Fever Virus nucleocapsid-RNA interaction; P21700; RVFV N-RNA binding, fluorescence polarization; active compounds read low; % bound, % (test concentration not listed); 0.1% of 20,000 active; AID 651828;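 active means between 0 and 58% in either replicate with normal brightness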;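 further: 100 nL library stock added to about 12 µL; 100% = protein and probe without compound and 0% = probe alone; numbers are from one replicate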
Target sequence (P21700 whole entry, looked up): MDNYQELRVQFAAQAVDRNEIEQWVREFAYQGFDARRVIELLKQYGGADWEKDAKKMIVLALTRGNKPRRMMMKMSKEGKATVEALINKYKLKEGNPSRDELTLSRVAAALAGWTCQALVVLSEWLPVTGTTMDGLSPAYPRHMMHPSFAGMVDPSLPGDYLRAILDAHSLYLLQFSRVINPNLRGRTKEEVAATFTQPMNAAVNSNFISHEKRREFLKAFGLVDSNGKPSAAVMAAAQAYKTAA
Numbers without * were called inactive; & = joins results of further samples.

SMILES	RVFV N-RNA FP
COc1ccc(CCN(C)CC2=CCC3CC2C3(C)C)cc1OC (stereo not drawn)	91.6
CC(=O)Nc1ccc(NC(=O)CSc2nccc(=O)[nH]2)cc1	90.8
Clc1ccc(Cn2cc(/C=N/n3cnnc3)c3ccccc32)c(Cl)c1	89.0
CC12CN3CC(C)(CN(C1)P3(=O)Oc1ccccc1)C2=O (stereo not drawn)	92.0
Cc1cc(C)n(C(=O)C2CCCN2S(=O)(=O)c2ccc(Cl)cc2)n1 (stereo not drawn)	97.1
CNC(=O)CSc1nnc(-c2ccccc2)n1C	94.0
Clc1ccnc(-c2ccccc2)n1	93.2
COC(=O)c1ccc(CO/N=C(\N)c2c(-c3c(Cl)cccc3Cl)noc2C)o1	96.8
CCOP(=S)(OCC)Oc1nc(Cl)c(Cl)cc1Cl	91.6
CN1C2CCC1CC(OC(c1ccccc1)c1ccccc1N)C2 (stereo not drawn)	95.1

Part of the list above in a different format:
| canonical_smiles | RVFV N-RNA FP |
| --- | --- |
| COc1ccc(CCN(C)CC2=CCC3CC2C3(C)C)cc1OC (stereo not drawn) | 91.6 |
| CC(=O)Nc1ccc(NC(=O)CSc2nccc(=O)[nH]2)cc1 | 90.8 |
| Clc1ccc(Cn2cc(/C=N/n3cnnc3)c3ccccc32)c(Cl)c1 | 89.0 |
| CC12CN3CC(C)(CN(C1)P3(=O)Oc1ccccc1)C2=O (stereo not drawn) | 92.0 |
| Cc1cc(C)n(C(=O)C2CCCN2S(=O)(=O)c2ccc(Cl)cc2)n1 (stereo not drawn) | 97.1 |
| CNC(=O)CSc1nnc(-c2ccccc2)n1C | 94.0 |
| Clc1ccnc(-c2ccccc2)n1 | 93.2 |
| COC(=O)c1ccc(CO/N=C(\N)c2c(-c3c(Cl)cccc3Cl)noc2C)o1 | 96.8 |

(more compounds)
SMILES	RVFV N-RNA FP
COc1ccc(C(=O)Nc2cccc(NC(C)=O)c2)c(OC)c1	101.1
C=C/C(C)=C/[C@@]1(C)SC(=O)C(C)=C1O	95.8
CCCCc1nnc(SCC(=O)Nc2ccccc2)n1CC	86.1
Cc1cc(N)c2ccccc2[n+]1CCCCCCCCCC[n+]1c(C)cc(N)c2ccccc21	104.3
O=C(Nc1c2c(nn1-c1ccccc1)CSC2)C1CCCCC1	99.7
Cc1cc(C)cc(-n2c(C)cc(/C=C(\C#N)C(=O)Nc3ccccc3)c2C)c1	97.8
O=S1(=O)C=CC2ON=C(c3c(Cl)cccc3Cl)C21 (stereo not drawn)	96.6
CC(C)(C)c1ccc(C(=O)N2CCN(C(=O)C3CCCCC3)CC2)cc1	98.7
Cc1cc(C(=O)Nn2cnnc2)cs1	102.3
O=S1(=O)N=CN(Cc2ccccc2)c2ccccc21	91.9
COc1cccc(C(=O)N2CCN(C(c3ccccc3)c3ccccc3)CC2)c1OC	102.6
O=C(Nc1cc(OCC(F)(F)F)cc(OCC(F)(F)C(F)F)c1)c1cccnc1	94.0
CSc1ncnc2sc(C)cc12	96.0
C[N+]1(C)CCCC(OC(=O)C(O)(c2ccccc2)c2ccccc2)C1 (stereo not drawn)	96.8
CC1CCCC(C)N1NC(=S)NC1CCCCC1 (stereo not drawn)	97.1
Nc1n[nH]c(=S)n1Cc1ccccc1	97.5
CCC(Oc1ccccc1)C(=O)N1CCCCC1C (stereo not drawn)	96.7
Cc1ccc(C(=O)Nc2c(C(C)(C)C)nn(C)c2C(C)(C)C)cc1	88.7
CCn1c(=NC(=O)c2ccc(Cl)s2)sc2ccccc21	95.4
CC1CN(CCC(C)c2ccccc2)CC(C)O1 (stereo not drawn)	95.4
Clc1cc(Cl)c(OCCCCn2cncn2)c(Cl)c1	106.7
CCOC(=O)c1c(-c2ccc(OC)cc2)csc1NC(=O)CNCc1ccco1	101.8
Cc1ccnc(NC(=O)c2ccccc2NC(=O)c2ccccc2)c1	97.7
O=C(N/C(=C/c1ccc2c(c1)OCO2)C(=O)N1CCOCC1)c1ccc(Br)cc1	91.4
Cc1cc(Nc2ccc(N(C)C)cc2)n2c(nc3ccccc32)c1C#N	95.2
ON=C1/C(=N\O)CC2(C/C1=N/O)OCCO2	94.2
COc1ccc2c(CCNC(=O)Nc3ccccc3)c[nH]c2c1	88.4
Cc1ccccc1-n1nc2c(c1NC(=O)C(C)C)CSC2	93.4
O=C(c1cccs1)C(O)c1c[nH]c2ccccc12 (stereo not drawn)	93.7
Cn1c(CC(=O)Nc2ccccc2F)nnc1SCC(=O)N1CCOCC1	108.9
CO/N=C(/C)c1ccc2c(c1)CCO2	103.5
CCOC(=O)N1CCN(C(=O)CN2C(=O)c3cc(Cl)c(Cl)cc3C2=O)CC1	96.9
CC(C)COC(=O)c1c(N)n(-c2ccc(S(N)(=O)=O)cc2)c2nc3ccccc3nc12	101.0
CCOc1ccc(NC(=S)NC(C)(C)C)cc1	96.8
Cc1cc(Cl)ccc1NC(=S)NCCCO	90.1
CCOC(=O)c1sc(=Nc2ccccc2)n(-c2ccccc2)c1C	98.8
Cc1cc(-c2onc(C)c2C(N)=S)no1	100.5
Cc1ccc(S(=O)(=O)/N=C/c2ccccc2O)cc1	96.1
Cn1cccc1/C=C1/C(=O)NC(=O)N(Cc2ccccc2)C1=O	88.7
O=C(NC(=O)N1CCCCC1)c1ccccc1	108.8
Cn1c(=O)c2[nH]c(-c3ccc(S(=O)(=O)O)cc3)nc2n(C)c1=O	92.8
CN1CCN(c2ccccc2NC(=O)c2cccs2)CC1	98.5
Cc1nc2sccn2c(=O)c1CCN1CCC(=C(c2ccc(F)cc2)c2ccc(F)cc2)CC1	89.4
O=C(/C=C(\O)c1ccc(Cl)cc1)C(F)(F)F	104.7
COc1ccc(Cl)cc1S(=O)(=O)NC1CCCC1	99.1
Cc1ccc(NC(=S)NC2CC2)c(C)c1	94.2
O=C(O)C(C(=O)O)C1c2ccccc2Oc2ccccc21	87.8
CCN1C(=O)C2C3C=CC(C3=C3C4CC5CC(C4)CC3C5)C2C1=O (stereo not drawn)	95.6
Cc1ccc2nsnc2c1S(=O)(=O)NC12CC3CC(CC(C3)C1)C2	100.0
C=CC(N)CCC(=O)O (stereo not drawn)	96.9
Continued.
SMILES	RVFV N-RNA FP
CCn1c(SCCOc2ccccc2)nc2ccccc21	100.2
COc1ccc(/C=N/NC(=O)c2c(-c3ccccc3)noc2C)c(O)c1	94.0
CC1CCN(S(=O)(=O)c2cn(C)c(=O)n(C)c2=O)CC1	95.4
O=C(O)CCCCCN1CCN(c2ccccc2)CC1	99.7
COc1cccc(C2CC(c3cccs3)=NN2C(=O)CN2CCOCC2)c1OC (stereo not drawn)	97.8
C=CCc1c(C)nc(SC(C)C)[nH]c1=O	105.0
COc1ccccc1C(=O)Nc1ccccc1N1CCN(C)CC1	99.1
COc1cc2ncnc(Nc3ccc(Oc4ccccc4)cc3)c2cc1OC	101.4
C/C(=C\c1ccccc1)CN1CCC(C(N)=O)CC1	97.4
COc1ccccc1CC(=O)N1CCCC1	86.3
CC[N+](CC)(CC)CCOc1ccc(/C=C/c2ccccc2)cc1	98.8
CC(/C=C/c1ccc2c(c1)OCO2)=N\NC(=O)c1ccccn1	86.6
CC1CCc2cc(F)ccc2N1C(=O)c1ccc2nccnc2c1 (stereo not drawn)	103.2
COc1cccc(Cl)c1NC(=O)N1CCN(c2ccnc3cc(Cl)ccc23)CC1	95.7
CCn1ncc(NC(=S)Nc2ccc3c(c2)OCO3)c1C(N)=O	101.2
N#C/C(C(=O)c1c[nH]c2ccccc12)=C1\SCC(=O)N1c1ccccc1	99.5
N/C(=N/c1nc(-c2ccccc2)cc(=O)[nH]1)Nc1ccccc1	95.5
Cc1noc(C)c1-c1nnc(-c2ccc(OC(F)(F)F)cc2)o1	91.1
CC(=O)OCC(=O)[C@@]1(O)CC[C@H]2[C@@H]3CCC4=CC(=O)C=C[C@]4(C)[C@H]3[C@@H](O)C[C@@]21C	92.3
O=C(c1ccc(Cl)cc1Cl)N1CCCC1	100.0
O=c1ccn([C@@H]2O[C@H](COP(=O)(O)OP(=O)(O)O)[C@@H](O)[C@H]2O)c(=O)[nH]1	99.1
Cc1ccc(Cn2nc(C)ccc2=O)cc1	100.6
COc1ccc(S(=O)(=O)N(C)CC(N)=O)cc1	91.8
Cc1[nH]nc2c1CCCC2	91.3
CCC(=O)OCC(=O)[C@@]1(OC(=O)CC)[C@@H](C)C[C@H]2[C@@H]3CCC4=CC(=O)C=C[C@]4(C)C3(F)[C@@H](O)C[C@@]21C (stereo partly drawn)	99.4
Cn1c(SCc2cc(=O)[nH]c3ccccc23)nc2ccccc2c1=O	90.6
COc1ccc(S(=O)(=O)N(CC(=O)NC2CC2)C2CCCCC2)cc1Cl	96.5
CS(=O)(=O)N(CC(=O)Nc1cccc(F)c1)c1cccc(F)c1	97.0
CNC[C@H](O)c1cccc(O)c1	96.9
O=C(NCCc1ccccc1)c1cnn2cccnc12	93.7
CN1C(=O)CS/C1=N/N=C/c1cn(-c2ccccc2)nc1-c1ccccc1	95.8
NNc1nc(-c2ccccc2)cc(-c2ccc(Br)cc2)n1	85.7
N#CCCn1cc(C(=O)Nc2ccccc2Cl)c(-c2ccc(F)cc2)n1	94.4
Cc1ccc(S(=O)(=O)N2CCCC2)c(C)c1	94.2
CCC(=O)N=c1sc2cc(OC)c(OC)cc2n1CCOC	100.0
CSc1ccc(NC(=O)N(Cc2ccccc2)C(=O)CC#N)cc1	88.2
COc1ccc(Oc2nc(C)cc(C)c2C#N)cc1	99.1
COc1ccc(-c2cccc(NC(=O)C(F)(F)F)c2)nn1	94.7
CCC1(c2ccccc2)C(=O)NCNC1=O	93.4
CS(=O)(=O)c1ccccc1C(=O)Nc1ccc2sccc2c1	96.0

A draw from above in order of number of heavy atoms, falling.
SMILES	RVFV N-RNA FP
COc1ccc(CCN(C)CC2=CCC3CC2C3(C)C)cc1OC (stereo not drawn)	91.6
N/C(=N/c1nc(-c2ccccc2)cc(=O)[nH]1)Nc1ccccc1	95.5
CCCCc1nnc(SCC(=O)Nc2ccccc2)n1CC	86.1
C/C(=C\c1ccccc1)CN1CCC(C(N)=O)CC1	97.4
CCOP(=S)(OCC)Oc1nc(Cl)c(Cl)cc1Cl	91.6

Next results:
SMILES	RVFV N-RNA FP
O=C1CCCN1CCCNC(=S)Nc1ccc(Nc2ccccc2)cc1	93.5
O=C(Nc1cccc(F)c1)c1oc2ccccc2c1NC(=O)C1CCCC1	100.3
CC(=O)NC[C@H]1CN(c2ccc(N3CCOCC3)c(F)c2)C(=O)O1	94.3&93.7&98.7
Cc1sc2ncn(CC(=O)c3ccccc3)c(=O)c2c1C	98.8
O=C(O)C(Cc1ccccc1)N1C(=O)/C(=C/C=C/c2ccco2)SC1=S (stereo not drawn)	94.6
Cc1oc2c(c1C(=O)NC1CCCCC1)C(=O)c1ccccc1C2=O	100.5
CN1CCN(NS(=O)(=O)c2ccc3ccccc3c2)CC1	103.3
O=C(NCC1CCCCN1)c1cc(OCC(F)(F)F)ccc1OCC(F)(F)F (stereo not drawn)	98.4&95.7
COc1ccc(C2CC(=O)N(C)c3ccccc3S2)cc1OC (stereo not drawn)	94.0
N#CCc1ccc(NC(=O)Cc2ccccc2)cc1	92.8
Cc1nc(N)sc1N=Nc1ccc(S(=O)(=O)N2CCOCC2)cc1	96.9
C=CC(=O)N1CC2CC(C1)c1cccc(=O)n1C2 (stereo not drawn)	100.1
CN(C)NC(=S)Nc1cccc(C(F)(F)F)c1	92.3
S=C(c1cccnc1)N1CCOCC1	82.4
COc1ccc(C/C(=N/N=C(N)N)c2ccc(OC)cc2)cc1	98.8
O=C(CNC(=O)Cc1ccccc1)NCc1ccco1	96.4
CCCNC(=O)CN1C(=O)N(c2ccc(CC)cc2)S(=O)(=O)c2ccccc21	93.3
Cc1cc(C)cc(OC(=O)c2cccnc2)c1	115.1
CCOc1ccccc1-c1noc(CCCC(=O)Nc2cc(C(F)(F)F)ccc2Cl)n1	107.1
COc1ccc2ccc(OC)c(/C=C3/NC(=O)NC3=O)c2c1	91.5
Cc1ccc(C(=O)CNC(=O)C2Cc3ccccc3C(=O)O2)cc1 (stereo not drawn)	90.5
CCOC(=O)c1cnc(COc2ccc(OC)cc2)[nH]c1=O	101.9
N#CC(C#N)=Cc1c(-c2ccccc2)nc2n1CCS2	95.9
COc1cccc(-n2c(Cc3cc(=O)[nH]c(=O)[nH]3)nnc2SCC(N)=O)c1	94.4
CCOC(=O)C1CCN(C(=O)c2cnn(-c3ccc(OC)cc3)c2C)CC1	98.4
O=C(c1cccnc1)N1CCOCC1	112.7
Cc1ccccc1/C=N/N=C1/NC(=O)CCS1	90.6
Cc1ccc2c(c1)c1c(n2C)C(O)CCC1 (stereo not drawn)	94.5
CC(=O)n1nc(-c2ccccc2)nc1N	99.0
Cc1ccc(NC(=O)C2=C(O)CCn3c2nc2ccccc23)cc1	90.0
Cc1ccccc1NC(=O)CS(=O)(=O)c1ccccc1	98.5
CCOC(=O)Cn1c(=O)c(C(=O)NC(=O)OCC)cn(Cc2ccccn2)c1=O	88.6
Cc1cc(C)c2c(N)c(C(=O)NN3CC(=O)N(c4ccccc4)CC3=O)sc2n1	95.4
CCOc1cccc2cc(C(=O)N3CCc4ccccc43)c(=O)oc12	84.5
O=C(CSc1ccccc1)Nc1ccncc1	88.6
S=C=NCCn1ccc2ccccc21	97.4
O=C(CN1CCCc2ccccc21)N/N=C/c1ccccc1	92.1
Cc1ccc(-c2nn(CCC#N)cc2C(=O)O)cc1C	101.4
CCOC(=O)c1cnc2c(F)ccc(F)c2c1Oc1cccnc1	86.2
Cc1cc(-n2cnc(-c3cn(C)nc3C)n2)no1	95.5
Cc1c(Cl)cccc1N=C1NC(=O)/C(=C/c2ccco2)S1	97.5
C/C(=C\C#N)CCc1ccccc1	97.2
O=C(COc1ccc(S(=O)(=O)N2CCCc3ccccc32)cc1)Nc1ccc2c(c1)OCO2	95.6
Cc1sc(-n2c(C)cc(/C=C3\SC(=S)NC3=O)c2C)c(C#N)c1C	104.0
Cc1cc(S(=O)(=O)NC2CCCCC2)ccc1OCC(=O)NCC1CCCO1 (stereo not drawn)	94.9
Cc1ccc2c(Cl)c(C(N)=O)sc2c1	87.7
c1ccc2c(CCNc3ncnc4nc[nH]c34)c[nH]c2c1	92.5
CC(C)(C)NC(=S)NCCc1ccccc1	100.3
COc1cc(C(=O)ON=C2CCSCC2)cc(OC)c1OC	100.8
CC(C)(C)c1ccc(/C(N)=N/C(=O)N2CCOCC2)cc1	100.2
O=c1[nH]c(=O)n(C2CCCCC2)c(O)c1C=Nc1ccc(N2CCOCC2)cc1	88.0
O=C(N1CCOCC1)n1ccnc1	96.2

Some of the compounds tested (hit frequency here may not be typical).
